Bioassay records: PubChem BioAssay, several laboratories
Mtb H37Rv = M. tuberculosis H37Rv growth inhibitors, H37Rv strain (AID 1626); 0.95% of 220,000 active; inhibition, % at 10 µM; hits with a dose series show IC50 in µM; M. tuberculosis H37Rv growth inhibition; higher % means a stronger effect;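 active = confirmed in a dose series; inconclusive = inhibition above 80% but not taken into the dose series; inactive = below 80% or under 30% at every dose of the series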;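 note: bacteria incubated seven days before Alamar blue readout; 0% = bacteria only wells and 100% = bacteria with antibiotic wells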
RecA splice inh = inhibitors of M. tuberculosis RecA intein splicing | P9WHJ3 | cell-free RecA intein splicing, fluorescence | inhibition, %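 (about 9 µM by stock and volumes)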 | 0.75% of 290,000 active; in the data active = inhibition above about 30%; inconclusive = no clear call, values can overlap the other calls;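 note: 0% = vehicle wells and 100% = reference inhibitor control wells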
Target sequence (P9WHJ3 whole entry, looked up, canonical isoform): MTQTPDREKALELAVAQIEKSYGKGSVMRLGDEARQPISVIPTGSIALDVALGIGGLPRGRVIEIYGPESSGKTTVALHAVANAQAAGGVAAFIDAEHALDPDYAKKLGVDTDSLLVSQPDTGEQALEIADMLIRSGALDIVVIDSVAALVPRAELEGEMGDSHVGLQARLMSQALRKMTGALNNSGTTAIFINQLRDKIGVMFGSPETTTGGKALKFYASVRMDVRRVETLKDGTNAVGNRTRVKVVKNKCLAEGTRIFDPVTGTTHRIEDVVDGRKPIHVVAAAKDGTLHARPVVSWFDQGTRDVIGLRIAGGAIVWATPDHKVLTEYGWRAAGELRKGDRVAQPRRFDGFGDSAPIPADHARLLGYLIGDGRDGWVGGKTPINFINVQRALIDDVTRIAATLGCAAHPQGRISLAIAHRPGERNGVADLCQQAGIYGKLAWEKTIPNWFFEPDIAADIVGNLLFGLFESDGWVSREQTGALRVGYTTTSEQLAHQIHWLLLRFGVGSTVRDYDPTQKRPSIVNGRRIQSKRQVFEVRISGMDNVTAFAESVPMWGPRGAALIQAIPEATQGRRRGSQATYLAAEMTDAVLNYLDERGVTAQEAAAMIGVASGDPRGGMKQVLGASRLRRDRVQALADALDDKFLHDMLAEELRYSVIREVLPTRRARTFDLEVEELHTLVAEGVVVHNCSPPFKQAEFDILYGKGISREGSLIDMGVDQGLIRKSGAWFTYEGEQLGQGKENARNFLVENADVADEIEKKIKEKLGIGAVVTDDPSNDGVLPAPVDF
YopH inh = inhibitors of Yersinia enterocolitica YopH tyrosine phosphatase; inhibition, %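 (about 10 µM by stock and volumes)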; fluorescence Ex485/Em525; 0.16% of 140,000 active;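 active = inhibition of 50% or more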;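 note: controls were vehicle for no effect and minimum signal wells for full effect; inactives centre near -20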
Mtb betalactam = beta-lactam sensitization of Mtb H37Rv. AID 434955. 0.27% of 330,000 active. M. tuberculosis H37Rv growth with meropenem, percent inhibition; hits of this screen are not shown here. inhibition, % at 25 µM;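 active = about 74% or more and at least 40 points above the plate without the antibiotic, then above 30% in a dose series; inconclusive = first-round hits that could not be retested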;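 note: growth measured after seven days incubation then overnight dye step; 0% = bacteria only wells and 100% = bacteria with antibiotic; twin plates without the antibiotic show which effects depend on it; some results filed as inactive read as strong as hits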
Arbovirus inh = arbovirus infection inhibition; arbovirus infection cell-based antiviral screen; inhibition, % at 10 µM; 0.37% of 200,000 active; AID 1251;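 active = inhibition from about 30%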;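 note: bluetongue infection of BSR cells; cell survival read as ATP light after 72 h; 0% = infected wells without compound and 100% = uninfected wells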
Arbovirus inh repeat = recorded beside Arbovirus inh, whose call it bears; inhibition, %; measured here: 10K subset replicate screen; many hits read low in the repeat;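 first of two repeat runs on a subset; 0% = infected and 100% = uninfected wells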
* hit, by the source's call; ? = inconclusive; . = not tested or not shown.

SMILES | Mtb H37Rv | RecA splice inh | YopH inh | Mtb betalactam | Arbovirus inh | others
COc1cccc(C2CC(c3cccs3)=NN2C(=O)CSc2nc3c(cnn3-c3ccc(F)cc3)c(=O)[nH]2)c1OC (centres undefined) | 77% | 0.5 | -20 | -10 | 2
COc1ccc(/C=C2\SC(=S)N(CC(=O)Nc3nnc(C)s3)C2=O)cc1 | . | -5.4 | -16 | -2 | -6
O=C(NCC1CCCN1S(=O)(=O)c1ccccc1)C(=O)NC1CC1 (centres undefined) | . | 0.9 | . | 6 | .
COc1ccccc1CNS(=O)(=O)c1ccc(-c2cnc(C3CC3)o2)cc1 | . | 2.5 | . | 1 | .
CCn1c(-c2ccc(C)cc2)nn(CC(=O)NCCc2ccccc2)c1=S | -5% | -1.4 | -7 | 3 | -8
COc1ccc(CN2CCN(C(=O)c3ccc(CNS(=O)(=O)c4ccc(C)cc4)cc3)CC2)c(OC)c1OC | . | -3.5 | . | 12 | .
COc1ccccc1N1CCN(C(=O)c2cc(N3C(=O)C4C5CCC(C5)C4C3=O)ccc2Cl)CC1 (centres undefined) | 2% | -3.3 | -15 | 0 | -3
Cc1cc(N2CCOCC2)n2nc(C)c(-c3ccccc3)c2n1 | 5% | . | -23 | -7 | -8
CC1CC(C(F)(F)F)n2ncnc2N1 (centres undefined) | -6% | -0.5 | -13 | 2 | 8
COc1ccc(Cl)cc1NC(=O)c1noc(C)c1[N+](=O)[O-] | . | -5.7 | . | 2 | .
COc1ccccc1Oc1ccc(-c2cnc3ccccc3n2)cc1[N+](=O)[O-] | 4% | -2.9 | . | 0 | -12
O=C1NC(=O)N(Cc2ccccc2F)C1=O | . | 3.3 | . | -1 | .
O=C(CSc1ccccn1)N1CCOCC1 | -4% | -1.8 | -29 | -6 | 8
CN(Cc1ccc(F)cc1)C(=O)c1ccc2c(c1)NC(=O)CS2 | -3% | -2.5 | . | -5 | -1
CCCOC(=O)Nc1cc(OC)ccc1[N+](=O)[O-] | -8% | 3.6 | . | 1 | -2
Cc1ccc(NC(=O)C2CCN(S(=O)(=O)c3c(C)n[nH]c3C)CC2)nc1 | -7% | -1.3 | -42 | 0 | 9
CCOc1ccc(NC(=O)c2ccccc2OC)cc1 | . | 2.3 | 8 | 16 | 5
C(=N\Nc1nc(-c2ccccc2)cs1)/c1cccnc1 | 4% | 5.4 | -23 | . | 21
O=C(OCc1nc2ccccc2[n+]([O-])c1C(=O)c1ccccc1)c1ccco1 | -5% | -4.8 | . | -4 | .
Cc1c(NC(=O)CN2C(=O)C(=O)c3ccccc32)c(=O)n(-c2ccccc2)n1C | -1% | 0.8 | . | -9 | -2

6 successive records from above, for reference:
SMILES | Mtb H37Rv | RecA splice inh | YopH inh | Mtb betalactam | Arbovirus inh | others
CCCOC(=O)Nc1cc(OC)ccc1[N+](=O)[O-] | -8% | 3.6 | . | 1 | -2
Cc1ccc(NC(=O)C2CCN(S(=O)(=O)c3c(C)n[nH]c3C)CC2)nc1 | -7% | -1.3 | -42 | 0 | 9
CCOc1ccc(NC(=O)c2ccccc2OC)cc1 | . | 2.3 | 8 | 16 | 5
C(=N\Nc1nc(-c2ccccc2)cs1)/c1cccnc1 | 4% | 5.4 | -23 | . | 21
O=C(OCc1nc2ccccc2[n+]([O-])c1C(=O)c1ccccc1)c1ccco1 | -5% | -4.8 | . | -4 | .
Cc1c(NC(=O)CN2C(=O)C(=O)c3ccccc32)c(=O)n(-c2ccccc2)n1C | -1% | 0.8 | . | -9 | -2

Ordered by formula weight (ascending): 5 of the compounds above
SMILES | Mtb H37Rv | RecA splice inh | YopH inh | Mtb betalactam | Arbovirus inh | others
CC1CC(C(F)(F)F)n2ncnc2N1 (centres undefined) | -6% | -0.5 | -13 | 2 | 8
CCCOC(=O)Nc1cc(OC)ccc1[N+](=O)[O-] | -8% | 3.6 | . | 1 | -2
CCOc1ccc(NC(=O)c2ccccc2OC)cc1 | . | 2.3 | 8 | 16 | 5
O=C(OCc1nc2ccccc2[n+]([O-])c1C(=O)c1ccccc1)c1ccco1 | -5% | -4.8 | . | -4 | .
COc1ccc(CN2CCN(C(=O)c3ccc(CNS(=O)(=O)c4ccc(C)cc4)cc3)CC2)c(OC)c1OC | . | -3.5 | . | 12 | .

Molecules listed so far that contain a Cl atom, in the order listed:
SMILES | Mtb H37Rv | RecA splice inh | YopH inh | Mtb betalactam | Arbovirus inh | others
COc1ccccc1N1CCN(C(=O)c2cc(N3C(=O)C4C5CCC(C5)C4C3=O)ccc2Cl)CC1 (centres undefined) | 2% | -3.3 | -15 | 0 | -3
COc1ccc(Cl)cc1NC(=O)c1noc(C)c1[N+](=O)[O-] | . | -5.7 | . | 2 | .

Following part
SMILES | Mtb H37Rv | RecA splice inh | YopH inh | Mtb betalactam | Arbovirus inh | others
O=C(NCC(=O)N1CCCC1)c1ccc(Cl)cc1 | . | 0.9 | . | -7 | .
CCOC(=O)C1C(=O)NC(N2CCCCC2)=NC1c1ccccc1 (centres undefined) | 3% | -3.9 | -41 | ? | 0
O=c1[nH]c2cc3c(cc2cc1CN(CC1CCCO1)S(=O)(=O)c1ccccc1)OCCO3 (centres undefined) | -1% | 2.6 | -28 | 1 | 2
Cc1ccc(NCc2nnc(SCC(=O)N3CCCc4ccccc43)o2)c(C)c1 | -1% | . | -31 | 0 | -5
O=C(COC(=O)CSc1ccc(F)cc1)NCCCc1ccccc1 | . | 2.8 | . | -6 | .
Cc1ccsc1C1Nc2ccc3ncccc3c2C2=C1C(=O)CCC2 (centres undefined) | 5% | -3.9 | -16 | 19 | 16
O=C(CSc1ccc(-c2ccccn2)nn1)N1CCCc2ccccc21 | 4% | -0.8 | . | 63 | -31
Cc1ccc(S(=O)(=O)NNC(=O)c2cccnc2)cc1 | 1% | -12 | . | 10 | 17
COCCOC(=O)c1c(C)n(C)c2ccc(OC(=O)N(C)C)cc12 | -2% | -0.1 | -21 | -4 | -1
O=S(=O)(c1ccc(Cl)cc1)N1CCN(c2ncccn2)CC1 | 5% | 4.3 | . | 0 | 2
Cc1cc(C)n(C(=O)CCCC(=O)n2nc(C)cc2C)n1 | -9% | 1.6 | -34 | -24 | 4 | Arbovirus inh repeat=-1
CCOc1ccc(NCc2cccn2-c2nnc(N3CCC(C(=O)NCCCN4CCCCC4C)CC3)s2)cc1 (centres undefined) | . | 1.2 | . | 97 | .
COC(=O)c1ccc(NC(=O)CN2CCOCC2)cc1 | 2% | 1.9 | 6 | -8 | -2
CCOc1ccccc1N(CC(=O)NC1CCCCC1)C(=O)CCC(=O)Nc1nccs1 | . | -0.8 | . | -4 | .
CC(=O)N1CCN(CC(C)(C)NS(=O)(=O)c2ccc(C)cc2)CC1 | . | 0.7 | . | -17 | .
CC(=O)Nc1cccc(-c2cn3ccccc3n2)c1 | -8% | -0.6 | . | 1 | 1
Cc1nn(-c2ccccc2)c(C)c1NC(=O)COC(=O)Cc1ccccc1 | . | -1.3 | . | -3 | .
O=C(CCC(=O)OCC(=O)c1cccc([N+](=O)[O-])c1)Nc1cccc(Cl)c1Cl | -5% | 0.3 | -42 | 3 | 8
Cc1ccc(-c2csc(N(CCCN3CCOCC3)C(=O)c3ccco3)n2)cc1 | 1% | . | -31 | -5 | 18
COC(=O)CSc1nc(NCC(C)C)nc(N2CCOCC2)n1 | 1% | -1.0 | -29 | 7 | 8
Cc1ccsc1/C=N/NC(=O)CSCc1ccc(Cl)cc1 | -8% | 3.6 | 1 | -6 | -3
O=C(CSCc1ccccc1Br)NNC(=S)NCc1ccco1 | . | 5.5 | . | -6 | .
O=C(CN1CCOCC1)Nc1ccc(NC(=O)c2ccccc2F)cc1 | . | 0.1 | . | -5 | .
COc1ccc(-c2csc(-n3ncc(-c4cccs4)c3N)n2)cc1 | -7% | -0.3 | -9 | -3 | 9
CCCn1c(Nc2nc3ccccc3n2C)nc2ccccc21 | 3% | 13 | -8 | 100 | -29
COC(=O)CCCC1=CC2=CC(=O)C(C)(OC(=O)c3cccs3)C(=O)C2=CN1C1CCCCC1 (centres undefined) | -7% | 17 | . | -1 | .
COc1ccc(C(=O)NCc2ccco2)cc1S(=O)(=O)N1CCOCC1 | . | 6.2 | . | 0 | .
Clc1ccc(-n2nnc(-c3ncc[nH]3)n2)cc1Cl | -5% | 2.4 | . | -6 | .
CC(C)(C)NC(=O)NC(=O)CSc1nncs1 | 4% | -5.0 | . | -3 | 6
COc1ccc(CCn2c(C3CCCCC3)nc3c(c(=O)c4ccccc4n3C)c2=O)cc1 | 68% | 9.5 | . | 82 | .
Cc1cc(O)ccc1N1C(=O)c2cccc3cc([N+](=O)[O-])cc(c23)C1=O | 9% | -2.4 | . | 10 | 14
O=C(O)CCCC(=O)Nc1ccccc1C(=O)N1CCCC1 | -9% | -4.6 | -23 | -4 | 0
Cn1nnnc1SCCNCc1ccncc1 | -2% | -0.4 | -9 | 5 | 0
COCCN1C(=O)c2ccccc2C(C(=O)NCCCN2CCCC2=O)C1c1c[nH]c2ccccc12 (centres undefined) | -3% | . | -35 | . | 3
Cc1cc(Cl)c(S(=O)(=O)N2CC(C)OC(C)C2)cc1OCC(N)=O (centres undefined) | 5% | -4.7 | -33 | -8 | 1
Cc1[nH]nc(-c2ccc(OCc3cnn(-c4ccccc4)c3)cc2O)c1Oc1ccc(Cl)cc1 | 1% | -0.9 | -16 | -7 | 5
COc1cc2ccccc2cc1C(=O)NC(=S)Nc1cc(C(=O)O)ccc1C | 5% | -1.3 | . | . | 42*
O=C(CSc1nnc(-c2ccncc2)o1)Nc1ccccc1C(F)(F)F | . | -0.5 | . | 4 | .
CN1CCN(c2ccc(S(=O)(=O)N3CCCCC3)cc2NC(=O)c2cccc([N+](=O)[O-])c2)CC1 | 4% | 1.0 | . | 0 | 2
O=C(Nc1ccc(F)cc1)C1=CC(=O)N2CCN=C2S1 | -5% | -2.8 | . | -5 | 0
CCN(c1ccccc1)S(=O)(=O)c1ccc(C(=O)NCC(c2cccs2)N(C)C)cc1 (centres undefined) | 1% | 1.7 | . | 7 | -24
CCCCCC(=O)N1CCCC1 | -10% | 1.2 | . | 19 | .
O=C(CCc1ccccc1)Nc1nnc(-c2ccc3c(c2)OCCO3)o1 | ? | 4.9 | . | 96 | -8
COc1ccc(-c2oc3ncnc(NCCN4CCOCC4)c3c2-c2ccc(OC)cc2)cc1 | 5% | 3.8 | -39 | -3 | -10
CC(=O)c1cccc(OCc2cc(C(=O)N3C[C@@H](C)O[C@@H](C)C3)no2)c1 | . | -1.6 | . | 0 | .
COC(=O)Cc1ccc(NC(=S)NNC(=O)c2ccccc2Br)cc1 | ? | -0.8 | -33 | -3 | 5
Clc1cccc(/C=N/N2CCN(Cc3ccccc3)CC2)c1 | . | 2.4 | . | 0 | .
Cc1ccc(S(=O)(=O)CC2CSc3nc(N)cc(=O)n32)cc1 (centres undefined) | -8% | . | -5 | 2 | -5
Cc1noc(C)c1C(=O)NCCc1ccccc1 | 2% | -2.1 | 9 | -3 | 7
CCc1ccc2c(c1)cc(CN(C(=S)Nc1ccccc1)C1CC1)c1nnnn12 | 2% | 0.3 | -16 | -4 | 13
O=C(NC(=S)Nc1ccc(Br)cn1)c1cccs1 | 5% | 1.6 | . | 2 | 6
O=C(OCC(=O)N1CCC(Cc2ccccc2)CC1)c1ccccc1 | -2% | -1.7 | . | -2 | 0
O=C(NC1CCCCC1)C12CC3CC(CC(Cl)(C3)C1)C2 | -10% | 1.6 | -19 | 8 | 1
O=C(COc1coc(CN2CCc3ccccc32)cc1=O)NCCc1ccccc1 | . | -1.6 | . | -2 | .
Cc1cccc(C)c1OCC(=O)Nn1c(=O)[nH]c2ccccc2c1=O | -14% | -1.3 | . | 1 | -2
Cc1ccc(S(=O)(=O)N2CC(C)N(C(=O)N3CCOCC3)C2)cc1 (centres undefined) | . | 4.5 | . | -9 | .
CN1CCN(c2ccc(Cl)cc2NC(=O)C2COc3ccccc3O2)CC1 (centres undefined) | -2% | -4.3 | -20 | 5 | 9
CCCn1c(C2CCCN2c2nc(-c3cccc(Br)c3)cs2)nc2cc(Cl)c(Cl)cc21 (centres undefined) | . | -1.0 | . | -3 | .
Cc1cccc(NC(=O)CSCC(=O)Nc2cc(S(=O)(=O)N3CCOCC3)ccc2OC(C)C)c1 | . | -0.6 | . | -9 | .
C=CCNS(=O)(=O)CC12CCC(CC1=O)C2(C)C (centres undefined) | -4% | -0.7 | -16 | 1 | 6
Cc1ccc(-c2nnn(CC(=O)N(c3cccc(F)c3)C(C(=O)NC(C)(C)C)c3ccco3)n2)o1 (centres undefined) | -5% | -1.8 | . | 0 | 1
CC1CCC(=C(C#N)C(=O)Nc2cccc(Cl)c2)CC1 (centres undefined) | -9% | 14 | -32 | -1 | 0

Some of the compounds tested; count on the stated rates, not on these rows.
